FGF22 binding: FGF22 (human) thermal shift binding. Q9HCT0. recombinant FGF22 thermal shift, SYPRO orange fluorescence; percent of sucrose octasulfate shift, DMSO zero. calls only at 9.99 µM. hit rate 1.5% among 340,000. AID 651658;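 active = melting point raised past a set limit in the mean and every replicate; three in four hits are not shown here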
ALR inh: human ALR oxidase inhibition via reduced H2O2; P55789; purified ALR, DTT oxidation, H2O2 HRP-luminol luminescence; inhibition, % (concentration not given with the values); hit rate 3.8% among 290,000; AID 485317;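 active = mean and each replicate at 75% or more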;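 note: stock transfer was 7.5 nL into about 7.5 µL; 0% = neutral wells and 100% = wells with inactivated enzyme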
Target sequence (P55789 whole entry, looked up): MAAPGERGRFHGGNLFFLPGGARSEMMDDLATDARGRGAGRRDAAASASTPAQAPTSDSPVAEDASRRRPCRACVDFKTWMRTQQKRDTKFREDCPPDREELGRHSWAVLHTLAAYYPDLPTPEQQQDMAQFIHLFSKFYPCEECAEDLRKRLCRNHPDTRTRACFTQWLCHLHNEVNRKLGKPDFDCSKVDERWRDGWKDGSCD
E coli growth: inhibitors of Escherichia coli growth. OD600, 23 h; active compounds read low. OD600 absorbance (test concentration not listed). hit rate 0.21% among 330,000. AID 1053175;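 active = OD600 absorbance below the run mean of sample wells minus 3.6 SD, in any replicate, cut at about 0.56 in these data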;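 note: stock transfer was 300 nL into about 60 µL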
LANA-H2A inh: blocks KSHV LANA binding to histone H2A/H2B | Q9QR71 | cell-free LANA-H2A/H2B peptide, fluorescence polarization | inhibition, % (test concentration not listed) | hit rate 0.6% among 320,000; in the data active = inhibition mostly above about 10%, no sharp cut-off; inactive = mostly below about 6.7%;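 note: stock transfer was 7.5 nL into about 10 µL; 0% = median of vehicle wells and 100% = median of positive control wells; one replicate is shown; the record names a cut of 25% in any replicate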
HNF4A DNA FP: change in binding of human HNF4 alpha to DNA | P41235 | AID 1224865 | HNF4a-FITC DNA binding, fluorescence polarization, 1 h | activity change, % at 10 µM | hit rate 0.3% among 360,000; in the data active = activity change above about 30%, passing the limit was not always enough;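 note: controls were the assay level and a saturating level of protein; the project sought stronger binding though the title names inhibitors; some compounds called inactive have numbers as strong as hits; positive values seem to mean higher polarization but the record does not say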
UCH37 inh: human UCH37 deubiquitinating enzyme inhibition | Q9Y5K5 | purified proteasome/UCH37, Ub-AMC cleavage fluorescence | inhibition, % (concentration not given with the values) | hit rate 0.33% among 330,000 | AID 588478;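 active = mean of two replicates above 20%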;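 note: 0% = compound-free wells with enzyme and 100% = wells lacking proteasome; stock transfer was 100 nL into about 20 µL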
Target sequence (Q9Y5K5 whole entry, looked up): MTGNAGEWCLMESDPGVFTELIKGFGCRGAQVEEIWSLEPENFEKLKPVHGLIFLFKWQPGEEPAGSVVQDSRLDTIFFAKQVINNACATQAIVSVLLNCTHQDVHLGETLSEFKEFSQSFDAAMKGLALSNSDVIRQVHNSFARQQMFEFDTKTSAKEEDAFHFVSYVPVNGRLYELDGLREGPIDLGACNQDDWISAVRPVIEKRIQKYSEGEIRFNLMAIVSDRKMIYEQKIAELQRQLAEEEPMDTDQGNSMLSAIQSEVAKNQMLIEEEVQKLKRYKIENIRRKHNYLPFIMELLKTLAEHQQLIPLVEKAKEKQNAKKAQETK
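Assay system: Proteasome-bound UCH37. Buffer or medium: pH 7.4 Tris-HCl (50 mM) with ovalbumin, ATP-MgCl2, DTT. Incubation: 30 min preincubation with enzyme, 25 min cleavage at room temperature. Measured by: fluorescence, ex 355 nm, em 460 nm. Read-out basis: percent inhibition. Control set: wells without proteasome as full block, compound-free enzyme plus substrate as uninhibited.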
B2AR ag: activates human beta-2 adrenergic receptor causing internalization. P07550. response, % (test concentration not listed). hit rate 0.43% among 340,000. Am2.2-beta2AR cells, FAP receptor internalization, flow cytometry; reference of the scale not given here;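 active = response above a set limit, near 3 SD of response in nonfluorescent compounds, cut at about 42% in these data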;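 note: stock transfer was 100 nL into about 11 µL; a reference agonist was the positive control; negative values mostly stem from fluorescent compounds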
Target sequence (P07550 whole entry, looked up): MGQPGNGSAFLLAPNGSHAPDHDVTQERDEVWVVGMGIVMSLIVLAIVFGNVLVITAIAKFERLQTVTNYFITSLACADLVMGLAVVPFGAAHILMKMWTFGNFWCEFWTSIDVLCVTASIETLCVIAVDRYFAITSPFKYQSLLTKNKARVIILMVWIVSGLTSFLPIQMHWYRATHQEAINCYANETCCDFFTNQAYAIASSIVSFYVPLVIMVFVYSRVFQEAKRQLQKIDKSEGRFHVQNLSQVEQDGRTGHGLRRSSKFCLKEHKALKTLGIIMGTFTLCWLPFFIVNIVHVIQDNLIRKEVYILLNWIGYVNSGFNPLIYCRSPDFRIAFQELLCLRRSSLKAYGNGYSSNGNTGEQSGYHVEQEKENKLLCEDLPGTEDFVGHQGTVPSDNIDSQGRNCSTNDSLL
* = called active by the depositor; i = inactive; x = no result given; + = active, no number.

SMILES	FGF22 binding	ALR inh	E coli growth	LANA-H2A inh	HNF4A DNA FP	UCH37 inh	B2AR ag
Cc1onc(-c2ccccc2)c1C(=O)c1c[nH]c(C(=O)NCCCN2CCOCC2)c1	i	-12	0.68	2.8	-7.4	3.8	-1
COc1ccc(C2C(C#N)=C(SC)NC3=C2C(=O)CC(C)(C)C3)cc1 (centres undefined)	x	65	0.69	-4.6	-1.6	-8.9	4
Cn1c(N)c(C(=O)COC(=O)CNS(=O)(=O)c2cccc(Cl)c2)c(=O)n(C)c1=O	x	x	0.62	2.7	-0.5	2.2	-1
c1nnc(-c2ccc3c(c2)OCO3)o1	i	1	0.72	1.1	1.5	-2.6	-1
CCCCC(=O)NC(=S)Nc1cccc(C(=O)O)c1	i	1	0.69	0.3	5.0	-0.2	-1
CC12CCC(=O)C=C1C(O)CC1C2CCC2(C)C1CCC2(O)C(=O)CO (centres undefined)	i	x	0.69	x	2.5	0.8	29
O=C(CN(Cc1ccc(F)cc1)C(=O)c1csnn1)NC1CCCC1	i	-5	0.63	-1.4	2.1	0.0	2
COc1ccc(CN2C(=O)[C@H]3Cc4c([nH]c5ccccc45)C(C)(C)N3C2=O)cc1	i	-10	x	-1.2	0.7	0.6	-3
CC(Nc1ccc(Cl)cc1)c1cc(Cl)ccc1O (centres undefined)	x	99*	0.75	2.9	9.6	4.2	4
CCC(=O)c1cc(F)c(N2CCN(S(=O)(=O)c3ccc(C)cc3)CC2)cc1C	x	-1	0.72	-2.8	-2.9	2.5	-11
COc1ccccc1CNC(=O)/C=C/c1ccc(S(=O)(=O)NCc2ccco2)cc1	x	x	0.65	x	1.2	3.4	3
CCOC(=O)c1nnn(CC(=O)Nc2cc(Cl)ccc2C)c1C(=O)OCC	x	0	0.67	2.8	6.8	-1.2	21
COc1ccc(C(=O)N/C(=C\c2ccc3c(c2)OCO3)C(=O)Nc2cccc(C(=O)O)c2)cc1	i	-1	0.64	-1.2	-1.5	0.6	4
Cc1cc(C(=O)COc2ccccc2[N+](=O)[O-])c(C)n1C1CC1	i	-2	0.65	0.0	-2.6	2.6	-3
COC(=O)c1cc(NC(=O)Cc2ccc(OC)cc2)cc(C(=O)OC)c1	x	-3	0.68	-2.8	0.3	-1.9	8
C/C=C(\C)C(=O)Nc1cccc(C2=NOC3(C2)C[C@H](C(N)=O)N(C(=O)C(c2ccccc2)c2ccccc2)C3)c1 (some centres undefined)	x	-1	x	2.1	1.1	-0.7	1
Cn1c(=O)c(C(=O)CN2CC(=O)Nc3ccccc32)c(N)n(Cc2ccccc2)c1=O	i	-15	0.72	-3.4	-0.6	4.6	2
COc1ccc(NS(=O)(=O)c2cccc(C(=O)Nc3cccc(C(=O)O)c3)c2)cc1	i	x	0.69	-5.2	-2.9	-0.4	5
COc1ccc2oc(=O)c(C(=O)n3ccc(C)n3)cc2c1	x	-56	0.72	-1.8	-1.2	-210	1
O=c1c2ccccc2nc(-c2ccccc2Cl)n1O	i	-2	0.72	-3.6	2.2	-2.0	0
Nc1cc(C(F)(F)F)ccc1-n1cccc1	i	2	0.66	0.3	1.2	2.1	4
C=C(C)C(=O)N1CC2(CC(c3cccc(NC(=O)CCCCC)c3)=NO2)C[C@H]1C(N)=O (some centres undefined)	i	-9	x	2.2	-1.4	0.7	-1
Cc1nnc(NC(=O)Nc2cccc(Cl)c2)s1	x	4	0.75	-9.7	-1.5	0.4	11
CCOC(=O)N1CCN(C(=O)COc2ccc([N+](=O)[O-])cc2)CC1	i	-5	0.69	-5.7	-3.3	4.9	-3
COc1ccc2cc(C(=O)N3CCN(c4ccc(F)cc4)CC3)[nH]c2c1	i	-82	0.7	3.8	-5.3	0.9	0

Continuation:
SMILES	FGF22 binding	ALR inh	E coli growth	LANA-H2A inh	HNF4A DNA FP	UCH37 inh	B2AR ag
CN1C(=O)/C(=N\OC(=O)c2cccc3ccccc23)c2ccccc21	i	47	x	1.5	1.0	x	14
Cc1ccc(S(=O)(=O)C2CCOC2=O)cc1 (centres undefined)	x	-7	0.72	-8.3	2.6	1.7	6
CCCCCCn1c(CN2CCN(Cc3ccccc3)CC2)nc2c1c(=O)n(C)c(=O)n2C	x	-3	0.74	9.4	0.7	5.9	-18
Cn1c(/C(C#N)=C/c2ccc(-c3ccc(S(N)(=O)=O)cc3)o2)nc2ccccc21	x	-35	0.64	10	-2.2	-0.2	26
N/C(=N\OC(=O)CCc1ccccc1)c1ccc(Cl)cc1	x	1	0.58	0.9	-0.2	3.2	4
COc1ccccc1OCC(=O)c1[nH]c(C)c(C(C)=O)c1C	x	0	0.73	1.0	0.0	2.3	-4
CCCOc1ccc(NC(=O)CC2C(=O)N(C)C(=S)N2Cc2ccc3c(c2)OCO3)cc1 (centres undefined)	+	-5	0.65	3.0	-0.5	6.8	-10
O=C(Nc1cccnc1)/C(N=Nc1c(Cl)cccc1Cl)=C(\O)c1ccccc1	x	-9	0.69	-1.2	-2.4	8.0	-4
Cn1cnnc1SCC(=O)NCc1ccccc1	i	-3	0.68	-0.1	1.1	0.6	-2
O=C1C=C(NCc2ccco2)CC(c2ccc(Cl)cc2)C1 (centres undefined)	x	11	0.71	-1.7	3.2	2.6	-2
COc1ccc(NC(=O)c2cc(CC(C)C)nc3ccccc23)cc1	i	-3	0.68	-7.1	0.8	6.5	14
COc1ccc(C(=O)NC(=S)N2CCOCC2)cc1[N+](=O)[O-]	i	6	0.67	-6.1	1.1	-0.5	2
Cn1cc(CN2CCC(n3nccc3NC(=O)Cc3ccccc3)CC2)cn1	i	-1	0.71	4.1	0.1	3.3	-3
Cc1ccc(CN2CCN(C(=O)CCc3ccccc3)CC2)cc1	i	-19	0.67	-4.2	6.7	1.3	-5
COC(=O)c1sccc1NC(=O)COc1ccccc1Cl	x	2	0.69	9.9	-3.2	3.3	5
Cc1cnc(C(=O)N2CCN(c3ccc(C(F)(F)F)cn3)CC2)cn1	i	4	0.72	-4.8	-0.8	7.7	4
COc1cccc(C(=O)Nc2ccc(S(=O)(=O)N3CCN(C)CC3)cc2)c1	i	-4	0.64	1.6	3.2	-12	17
O=C(COC(=O)Cc1ccsc1)NNC(=O)c1ccccc1	i	1	x	-14	1.0	x	6
Cc1ccc(NC(=O)CCc2ccc(S(=O)(=O)N3CCOCC3)cc2)c(O)c1	i	41	0.69	5.3	2.3	1.6	-5
COc1ccc(C(C(O)C(=O)c2c[nH]c3ccccc23)N2CCN(c3ccccc3)CC2)cc1 (centres undefined)	x	1	x	0.7	1.1	x	3
CCOc1ccc(S(=O)(=O)N=C(c2ccccc2)N2CCOCC2)cc1	i	-2	0.67	-3.5	3.5	0.3	-5
CCCc1nc2ccccc2c(C(=O)OCC(=O)c2ccc3c(c2)NC(=O)CO3)c1CC	x	-4	0.73	-0.7	4.3	2.0	2
CC1CC(C)CN(CCCNC(=O)c2cn(C)c3ccc(S(=O)(=O)N4CCCC4)cc3c2=O)C1 (centres undefined)	i	-6	0.67	-3.1	3.3	4.4	-1
N=C1C(c2ccccc2)=C(O)CN1c1cccc(S(N)(=O)=O)c1	i	0	0.62	2.4	0.0	2.7	1
Cc1ccc(NC(=O)c2nc[nH]c2C(=O)N2CCOCC2)c(C(=O)c2ccccc2)c1	i	x	0.68	0.4	-1.9	1.1	-10

Compound profiles, as listed above. Screens in order: FGF22 binding, ALR inh, E coli growth, LANA-H2A inh, HNF4A DNA FP, UCH37 inh, B2AR ag
`Cc1ccc(NC(=O)c2nc[nH]c2C(=O)N2CCOCC2)c(C(=O)c2ccccc2)c1` is listed as i, x, 0.68, 0.4, -1.9, 1.1, -10
`Cc1cnc(C(=O)N2CCN(c3ccc(C(F)(F)F)cn3)CC2)cn1` is listed as i, 4, 0.72, -4.8, -0.8, 7.7, 4

Continuation:
SMILES	FGF22 binding	ALR inh	E coli growth	LANA-H2A inh	HNF4A DNA FP	UCH37 inh	B2AR ag
CCOC(=O)C1=CC(=O)CC(C)(C)O1	i	x	0.66	x	0.1	3.2	-2
COc1cccc(NC(=O)COc2ccccc2C(N)=O)c1	x	-7	0.72	-0.9	-0.2	-2.3	-1
CCOC(=O)c1coc(C(=O)OCC)c1C(=O)OCC	i	x	0.69	x	-1.0	7.4	4
C=CCn1c(SCC(=O)Nc2ccc(Br)cc2)nc(O)c(CC)c1=O	i	98*	0.66	-6.7	4.0	7.7	5
COc1ccc(-c2nc(CS(=O)CC(=O)NCc3ccc(F)cc3)c(C)o2)cc1 (centres undefined)	i	99*	0.67	0.5	3.3	-1.5	1
O=C(Nc1cccc(S(=O)(=O)N2CCCCC2)c1)c1ccc(S(=O)(=O)C(F)F)cc1	i	-4	0.67	i	7.6	0.6	6
COc1ccccc1N1CCN(c2ccc3cc(S(=O)(=O)N4CCCCC4)ccc3n2)CC1	i	-6	0.7	-3.9	2.5	-143	8
O=C(/C=C/c1ccc2c(c1)OCO2)NCc1ccc(F)cc1	x	-22	x	-1.3	2.5	x	-3
Cc1ccc(-c2nc(SCC(=O)NCC3CCCO3)c(-c3ccc(C)cc3)[nH]2)cc1 (centres undefined)	i	29	0.72	0.1	-0.3	0.6	-7
CCOC(=O)Nc1sc2c(c1C(=O)OCC)CCC2	x	10	0.71	-5.6	-4.4	4.6	0
COC(=O)NCC(C)OC(=O)Nc1ccc(Cl)cc1 (centres undefined)	i	0	0.68	3.7	-4.3	6.1	-9
O=C(C[n+]1cccc(/C=N/O)c1)N1CCCCCC1	i	-18	x	-4.5	-0.4	x	8
O=C(COC(=O)c1cnccn1)Nc1cc(S(=O)(=O)N2CCOCC2)ccc1Cl	i	-3	0.67	-2.9	-1.5	1.3	1
CC(C)CC(=O)N1CCN(C(=O)c2cccc(F)c2)CC1	x	-5	0.69	2.6	1.7	1.2	5
C=C(C)C1Cc2c(C)nn(-c3ccccn3)c2C1 (centres undefined)	x	x	0.66	2.3	0.6	1.0	-7
COc1ccc2sc(SCCCS(=O)(=O)O)[n+](CCCS(=O)(=O)[O-])c2c1	i	0	x	0.3	1.5	x	8
O=C(CN1C(=O)NC(CCc2ccccc2)C1=O)N1CCCCCC1 (centres undefined)	i	-1	0.7	1.7	3.8	0.6	-12
CN(CCOc1ccc(Cl)cc1)C(=O)c1cc(-c2ccco2)nc2ccccc12	i	17	0.71	4.8	4.3	-296	30
O=C(CSc1ccccc1F)NCCN1C(=O)CSC1=O	i	1	0.72	-1.2	-1.2	4.1	5
FC(F)(F)c1cnc(-n2cc[nH]c2=S)c(Cl)c1	x	x	0.77	2.1	2.7	-4.4	6
CCSc1nnc(-c2ccc(C)cc2)c2ccccc12	i	-17	0.72	2.6	6.2	-0.2	2
N#Cc1cn(-c2ccccc2)nc1-c1ccccc1	i	1	0.68	-4.3	0.8	1.7	19
Cn1cnnc1SCC(=O)Nc1cc(S(=O)(=O)N2CCCCCC2)ccc1Cl	x	-2	x	1.7	5.4	x	-4
COc1ccc2c(c1)[nH]c1c(=O)n(CCCN3CCOCC3)cnc12	x	x	0.7	2.4	2.5	-5.7	6
CCCNC(=O)[C@@H]1CCCN1C(=O)[C@@H]1Cc2ccccc2CN1	i	-2	0.67	-1.4	-2.2	3.4	-27

(next part)
SMILES	FGF22 binding	ALR inh	E coli growth	LANA-H2A inh	HNF4A DNA FP	UCH37 inh	B2AR ag
COc1ccc([C@H]2CC(=O)C=C(c3cc(Cl)ccc3OC)C2)cc1	i	1	x	-0.4	-1.0	4.4	-10
CN1CCN(C(=S)NC(=O)c2ccc(C(C)(C)C)cc2)CC1	i	9	0.69	4.2	-0.3	-0.4	3
COc1cccc(C(=O)/C=C/Nc2cc(C)ccc2O)c1	x	x	0.73	0.7	2.2	0.7	4
CCCCCc1ccc(-c2cn(Cc3ccc([N+](=O)[O-])cc3)nn2)cc1	x	x	x	0.8	-1.3	0.3	-7
O=C(COc1ccccc1[N+](=O)[O-])N/N=C/c1cccs1	x	-33	x	-0.8	0.5	x	-8
CC(C)(C)OC(=O)N1Cc2ccccc2C[C@H]1C(=O)N1CCC[C@H]1C(=O)O	i	-5	0.65	3.2	-3.6	-4.7	-7

These rows are one share of the data; count on the stated rates, not on these rows.
